# High-throughput results from PubChem BioAssay.
# Sa growth 42C: blocks Staphylococcus aureus growth | relative growth, % (no concentration beside the values) | S. aureus RN4220 growth, OD600, 20 h, 42 °C; hits give low values | hit rate 0.53% among 170,000 | AID 720641;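 active = growth at 42 °C up to 50% and 20 or more points under that at 30 °C, or under 10% at both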;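 note: 300 nL library stock went into each well; scaled to the means of positive and negative controls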
# GIV Gai3 FP: blocks GIV peptide binding to rat Galpha-i3; hit rate 0.42% among 210,000; Galpha-i3/FITC-GIV peptide fluorescence polarization, 90 min; hits give low values; scaled: aluminum fluoride 0%, vehicle 100%; percent of control (FP), % (test concentration not listed);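 active = replicate mean at 85% of control or lower, very high polarization wells dropped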;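 note: wells of about 15 µL received 100 nL stock; the first replicate is given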
# Target sequence (P08753 whole entry, looked up): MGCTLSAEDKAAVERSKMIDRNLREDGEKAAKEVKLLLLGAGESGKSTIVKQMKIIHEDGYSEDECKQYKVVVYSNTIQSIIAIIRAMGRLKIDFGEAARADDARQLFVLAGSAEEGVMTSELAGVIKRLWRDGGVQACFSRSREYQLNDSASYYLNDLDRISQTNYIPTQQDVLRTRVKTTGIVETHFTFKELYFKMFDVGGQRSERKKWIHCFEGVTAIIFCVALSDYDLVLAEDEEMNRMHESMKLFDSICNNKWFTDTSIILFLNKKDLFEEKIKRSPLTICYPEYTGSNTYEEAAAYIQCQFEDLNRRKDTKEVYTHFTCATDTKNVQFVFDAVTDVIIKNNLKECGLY
# HCMV UL50-53 inh: disrupts HCMV UL50-UL53 complex binding; HTRF UL50-UL53 interaction, normalized percent inhibition; inhibition, % (no concentration beside the values); hit rate 0.15% among 190,000;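 active = both replicates at 50% or more, plus weaker picks with an unusually low signal ratio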;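 note: stock transfer was 100 nL into about 20 µL; 0% = negative control wells and 100% = wells with untagged competitor protein; inactives centre near -12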
# Sa growth 42C second temp: also measured in Sa growth 42C; calls as there; relative growth, %; measured here: growth at 30 °C;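 optical density after 20 h as mean of two plates; 100% = untreated growth and lower means inhibition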
# Active calls of the source: *; · = no result given; & = joins results of further samples.
SMILES,Sa growth 42C,Sa growth 42C second temp,GIV Gai3 FP,HCMV UL50-53 inh
Cc1cc(C)cc(NC(=O)N2CCC(N3CCCCC3)CC2)c1,118,85,101,-10
O=C(CN1C(=O)CCc2cc(S(=O)(=O)N3CCCC3)ccc21)N1CC=C(c2ccccc2)CC1,·,·,106,-24
CCOc1ccc(-n2c(-c3ccc(C)cc3)nc3c(cnn3-c3ccccc3)c2=O)cc1,89,87,104,-15
COc1ccc(NC(=O)Cn2ncc3c([nH]c4ccccc43)c2=O)cc1,85,90,103,-32
O=C(CC1(CC2=NS(=O)(=O)c3ccccc3N2)CCCC1)NCCc1ccc(Cl)cc1,·,·,104,1
COc1ccc(Nc2cc(C(=O)O)nc3c(Cl)cccc23)cc1,·,·,99,-163
CC1CN(C)C(C)/C(=C\c2ccco2)C1=O (stereo not given),85,91,99,-27
CCCCOc1ccccc1C(=O)NCC(=O)NN,93,71,102,-10
COC(=O)COc1ccccc1O,89,92,·,7
CSc1cccc(NC(=O)c2nnn(CC(=O)Nc3cc(C)cc(C)c3)c2N)c1,95,82,97,-22
Cc1cc(C)c(S(=O)(=O)N2CCc3cc4cccc(C)c4nc32)c(C)c1,·,·,102,-9
O=C(OCc1ccc2nonc2c1)c1c2c(nc3ccccc13)CCC2,110,90,106,-4
Cc1c(C(=O)NCc2cccc(Cl)c2)oc2c1-c1[nH]ncc1CC2,79,54,105,·
O=C(Nc1ccc(-c2nc3ccccc3s2)c(O)c1)c1ccc(Br)cc1,109,83,109,-36
CCOC(=O)c1cc2c(=O)n3ccccc3nc2n(C)c1=NC(=O)c1cccc(C)c1,103,90,99,·
Cn1cc(S(=O)(=O)c2cccc(Cl)c2)c(=O)c2cc(F)c(N3CCN(c4ccc(F)cc4)CC3)cc21,90,89,106,·
COC(=O)C1=C(C)N=c2s/c(=C/c3ccc(OC(C)=O)c(OC)c3)c(=O)n2C1c1ccc(OC(C)=O)cc1 (stereo not given),·,·,108,-24
COc1cccc(CNC(=O)CCNS(=O)(=O)c2cccc3nsnc23)c1,92,104,109,-101
CN(CC(=O)Nc1ccc(-c2nnc3n2CCCCC3)cc1)S(=O)(=O)c1ccc(Cl)s1,93,86,·,-4
Fc1ccc(-c2noc(CSc3ccc(-c4ccccc4F)nn3)n2)cc1Cl,·,·,106,-26
O=C(O)C1CCN(C(=O)C2CC2)CC1,93,96,·,1
O=C1Nc2ccccc2S/C1=C\C(=O)N1CCN(Cc2ccccc2)CC1,118,97,107,-34
CC1=CC(=C2C(=O)c3ccccc3C2=O)C=C(C)N1CCN1CCOCC1,107,100,106,-16
Cc1ccc(CN2CCSc3ccc(C(=O)Nc4ccc(Cl)cc4)cc32)cc1,103,88,105,-30
CCOC(=O)c1c(C)[nH]c(C)c1S(=O)(=O)N1CCCC(C(=O)NCc2cccnc2)C1 (stereo not given),·,·,105,9
CCN(CC)c1cc(C)c2cc(NC(=O)c3ccc(Br)o3)ccc2n1,91,51,109,-5
Cc1cc(=O)n(CC(=O)Nc2ccc([N+](=O)[O-])cc2)c(-n2nc(C)cc2C)n1,98,62,103,·
O=S(=O)(c1ccccc1)c1nc(-c2cccs2)oc1NCc1ccccc1,83,84,102,·
Cc1ccc(C(=O)CSc2nc3cc(C(=O)NC4CCCC4)ccc3c(=O)n2CC2CCCO2)cc1 (stereo not given),89,86,103&100,-4
CC(=O)OC1CC(C(=O)O)N(S(=O)(=O)c2ccc(C)cc2)C1 (stereo not given),80,93,·,-8
CCOC(=O)c1c(C)sc(-c2c(-c3cc(C)ccc3C)[nH]c3c2c(=O)[nH]c(=O)n3C)c1O,83,65,224,4
CCN(CC)S(=O)(=O)c1ccc(NC(=O)Nc2cn(CC(C)C)c(=O)c3ccccc23)cc1,91,88,100,-19
CC(=O)N1N=C(c2c(O)n(C)c(=S)n(C)c2=O)CC1c1ccc(N(C)C)cc1 (stereo not given),·,·,109,5
COC(=O)C1=C(CN2CC(C)CC(C)C2)NC(=O)NC1c1ccc(OC)cc1 (stereo not given),93,87,103,-21
CCN(CC(=O)NCc1ccc(F)cc1)C(=O)Cc1coc2cc3c(cc12)CCC3,114,82,·,-19
O=C1NC(=Nc2ccccc2O)CS1,85,63,91,-40
CCN1C(=O)c2ccccc2Sc2ccc(C(=O)NCC3CCCO3)cc21 (stereo not given),96,88,107,·
COc1ccc(S(=O)(=O)N(CCc2ccccc2)CC(=O)N2CCN(C)CC2)cc1Cl,93,105,110,-6
O=C(NCc1ccc(Cl)c(Cl)c1)c1cccnc1OCC(F)(F)F,106,95,106,-7
COc1ccc(N2CCN(C(CNC(=O)CC(C)C)c3ccc4c(c3)OCO4)CC2)cc1 (stereo not given),107,81,100,·

# The closing 2 compounds of the section before lead into the next:
SMILES,Sa growth 42C,Sa growth 42C second temp,GIV Gai3 FP,HCMV UL50-53 inh
O=C(NCc1ccc(Cl)c(Cl)c1)c1cccnc1OCC(F)(F)F,106,95,106,-7
COc1ccc(N2CCN(C(CNC(=O)CC(C)C)c3ccc4c(c3)OCO4)CC2)cc1 (stereo not given),107,81,100,·
O=C1C=CC(=O)N1c1ccccc1Br,79,63,·,-34
CC1CCN(c2cc(N3CCOCC3)c3c4c(onc24)-c2ccccc2C3=O)CC1,·,·,174,-40
CCC(C)(C)NC(=O)C1CCCN(S(=O)(=O)c2c(C)noc2/C=C/c2c(C)cc(C)cc2C)C1 (stereo not given),·,·,107,-19
COC(=O)c1cc(COC(=O)C2(c3cccc(F)c3)CCCC2)oc1C,110,105,·,-38
COc1ccc(C)cc1NC(=O)c1c(Cl)nc2sccn12,117,86,·,-32
OC1CN(C(c2ccccc2)c2ccccc2)C1,96,94,105,-6
Cc1ccc2nc(-c3ccncc3)cc(-c3ccccc3)c2c1,122,77,105,·
CC(=Nc1ccccc1)c1nc(-c2ccccc2)oc1O,81,64,100,-28
CCCCn1c(SCC(=O)N(C(C)C)C(C)C)nc2c1c(=O)n(C)c(=O)n2C,112,105,101,-8
COC(=O)C1=C(C)Nc2[nH]c(=S)[nH]c(=O)c2C1c1ccccc1 (stereo not given),92,95,·,-25
O=c1[nH][nH]c(=S)n1C1CCCCC1,91,85,104,-11
Cc1ccc(C)c(N(C)C(=O)CCNC(=O)Cn2cnc3ccccc3c2=O)c1,90,80,109,-56
COc1ccc(-c2nc(CCNC(=O)C(C)Oc3cc(C)c(Cl)c(C)c3)cs2)cc1 (stereo not given),·,·,99,-6
C=CCN(Cc1nc(-c2ccccc2)no1)C(=O)Nc1ccccc1,100,91,104,-46
COC(=O)CNC(=O)C12CC3CC(C)(CC(C)(C3)C1)C2,91,96,107,-15
COc1cccc(C(=O)Nc2ccccc2-c2nc(-c3ccc(C)cc3)no2)c1,108,91,98,-4
O=C(O)CCCN1CCCC1=O,93,94,101,-4
COc1ccc(OC)c(NC(=O)CSc2nc3ccccc3nc2N2CCCCC2)c1,105,97,108,-3
COc1ccc(-n2cc(-c3ccccc3)c3c(N4CCCCC4)ncnc32)cc1,111,96,101,·
Cc1ccc(N2CCN(c3ncnc4onc(-c5ccc(F)cc5)c34)CC2)c(C)c1,100,91,101,·
O=C1/C(=C/c2ccc(N3CCOCC3)cc2)CCc2ccccc21,93,88,172,·
COCc1nnc(C(=O)Nc2ccc(C(=O)NCCc3c[nH]c4ccc(C)cc34)cc2)s1,·,·,105,-14
COC(=O)C1=CC=C(c2ccc(OC)cc2)SC1,103,48,101,-10
CCN1CCSc2ccc(C(=O)NCc3cccc(F)c3)cc21,107,101,103,2
O=S(=O)(Cc1ccccc1)N1CCCCCC1,100,91,·,-5
Cc1ccc(C(=O)COC(=O)CCCC(=O)Nc2cc(C(F)(F)F)ccc2Cl)cc1C,102,80,109,-44
CC(C)Cc1nnc(NC(=O)COc2ccccc2-c2nc(C(C)C)no2)s1,·,·,100,-30
CCOc1ccc(-n2c(=O)c3c4c(sc3n(Cc3cc(=O)n5cc(Cl)ccc5n3)c2=O)CCC4)cc1,108,89,105,-8
Cc1ccc(-c2csc(CS(=O)(=O)C(C)(C)C)n2)cc1,132,83,105,-21
Nc1nc2c(c3c1c(=O)oc1ccccc13)CCCC2,81,87,100,-7
CCN1CC2CCCC3(C1)C(=O)NC1(CCCCC1)N=C23 (stereo not given),94,78,105,-18
CC1CCN(S(=O)(=O)c2ccc3c(c2)c(=O)c(C(=O)N2CCc4ccccc42)cn3C)CC1,·,·,105,-33
CCOC(=O)c1c(NC(=O)CCN2C(=O)c3cccc4cccc(c34)C2=O)sc2c1CCC2,·,·,101,-9
CC1CCCCN1C(=O)CSC1=NS(=O)(=O)c2ccccc2N1 (stereo not given),97,89,102,-24
Cc1nccn1Cc1cccc2ccccc12,108,88,·,-43
N/C(=N\OC(=O)c1ccc2c(c1)OCO2)c1ccc(Cl)cc1,96,96,108,-4
Cc1cc(Cl)ccc1OCCCC(=O)NC1(C)CCS(=O)(=O)C1 (stereo not given),91,89,·,-23
COc1ccccc1C(C#N)N1N=C(C)CC1c1ccccc1 (stereo not given),132,100,106,-26
Cc1ccccc1C(=O)NCCc1csc2nc(-c3cccc(F)c3)nn12,·,·,101,-3
Nc1nnc(C(=O)c2ccccc2N)s1,91,85,122,·
O=C(CCCCc1cccs1)Nc1ccccc1F,86,86,·,-2
Cc1ccn2c(NC3CCCC3)c(-c3cccnc3)nc2c1,85,89,99,·
COc1cc(C2CC(=O)C3=C(C)Nc4ccccc4N=C3C2)cc(OC)c1OC (stereo not given),89,63,106,2
O=c1c(F)cn(C2CCCO2)c(=O)n1Cc1ccccc1F (stereo not given),71,62,103,-19
COc1cccc(NC(=O)C(=O)NCCc2csc3nc(-c4ccccc4C)nn23)c1,99,83,104,·
CCC(COc1nnnc2ccccc12)NS(=O)(=O)c1ccc(-n2cnnn2)cc1 (stereo not given),100,84,99,-28
Cc1ccc(-n2nc3c(c2NC(=O)CCC2CCCCC2)CSC3)cc1,103,77,97,·
O=C(NN1CCOCC1)c1ccco1,90,90,·,-4
Cc1nc(N)[nH]c(=O)c1Oc1ccc(Cl)cc1Cl,98,65,97,2
Cc1cc(NC(=O)C(C)Sc2nc(-c3ccccc3)cc(=O)[nH]2)no1 (stereo not given),107,81,97,-13
CCc1ccc(-c2nc3cc(NC(=O)c4ccc(F)cc4)ccc3o2)cc1,102,94,109,-1
O=C(Nc1ccccc1)c1cc([N+](=O)[O-])ccc1Cl,·,·,102,-80&-117&-32&-32&-79&-119
CC12CS(=O)(=O)CC1SC(=S)N2c1ccccn1 (stereo not given),81,89,·,-9
O=C(Cn1cnc2ccccc2c1=O)NCc1ccccc1,107,93,95,-4
C=CCC(c1ccccc1)N(C(C)=O)c1ccco1 (stereo not given),104,116,99,-7
Cc1ccccc1-n1c(SCc2c(C)noc2C)nnc1-c1ccncc1,77,94,·,-16
Cc1ccc(NC(=O)C(Cc2ccccc2)n2cccc2)cc1 (stereo not given),103,75,104,-23
CCOCCCNC(=O)c1cccc(Nc2cc(-c3cccc(C)c3)ncn2)c1,·,·,103,-22
O=C(NCc1cccnc1)C1CCN(Cc2cc3ccccc3n2Cc2cccc(Cl)c2)CC1,60,29,99&100,·
Cc1ccc(-n2ncc(C(=O)N3CCN(Cc4ccccc4)CC3)c2C2CCN(C(=O)OC(C)(C)C)CC2)cc1,103,104,107,·

# 2 records picked at random from those above:
SMILES,Sa growth 42C,Sa growth 42C second temp,GIV Gai3 FP,HCMV UL50-53 inh
Cc1ccn2c(NC3CCCC3)c(-c3cccnc3)nc2c1,85,89,99,·
Cc1ccc(NC(=O)C(Cc2ccccc2)n2cccc2)cc1 (stereo not given),103,75,104,-23

# (listing goes on)
SMILES,Sa growth 42C,Sa growth 42C second temp,GIV Gai3 FP,HCMV UL50-53 inh
Cc1cc(OCCN)c(C(C)C)cc1Cl,104,71,102,2
O=C(CSc1nc2nc[nH]c2c(=O)[nH]1)N1CCOCC1,·,·,100,3
CNC(=O)c1ncoc1-c1ccc(Cl)cc1,102,97,102,11
COCCCNC(=O)c1nn(-c2ccc(C)cc2)c(=O)n(C)c1=O,101,91,98,·
CN(Cc1ccccc1)C(=O)COC(=O)c1ccc(-n2cnnn2)cc1,83,91,·,-21
CC1=C(c2ccc(F)cc2)S(=O)(=O)N(CC(=O)NCc2ccc(C)cc2)C1=O,·,·,98,-46
CC1=C(C(=O)OCCOC(C)C)C(c2cccc(OCc3ccccc3)c2)NC(=O)N1 (stereo not given),·,·,102,-12
c1ccc(-n2nnnc2-c2cnoc2-c2cccs2)cc1,94,82,101,-30
CCOC(=O)c1cc(S(=O)(=O)NCCC(=O)NC2CCCC2)cn1C,·,·,103,-6

# Entries of single compounds, looked up by structure.
# Record of O=C(CSc1nc2nc[nH]c2c(=O)[nH]1)N1CCOCC1 = Sa growth 42C = ·; Sa growth 42C second temp = ·; GIV Gai3 FP = 100; HCMV UL50-53 inh = 3
# Record of CCOC(=O)c1cc(S(=O)(=O)NCCC(=O)NC2CCCC2)cn1C = Sa growth 42C = ·; Sa growth 42C second temp = ·; GIV Gai3 FP = 103; HCMV UL50-53 inh = -6
# Record of CNC(=O)c1ncoc1-c1ccc(Cl)cc1 = Sa growth 42C = 102; Sa growth 42C second temp = 97; GIV Gai3 FP = 102; HCMV UL50-53 inh = 11
